VDR inhibitor = vitamin D3 receptor (human) inhibition; P11473; VDR-SRC2-3 peptide fluorescence polarization, 2 h; Potency, µM, inactives show max response, negative = inhibition, actives largely listed as inhibitors; 0.93% of 400,000 active; AID 504847; active = well fitted inhibition curve with a large enough effect; inconclusive = small, poorly fitted or top-dose-only effect, or another doubt; inactive = no such curve, though single readings can be large or run the other way; also: series mostly up to about 120 µM
Target sequence (P11473 whole entry, looked up): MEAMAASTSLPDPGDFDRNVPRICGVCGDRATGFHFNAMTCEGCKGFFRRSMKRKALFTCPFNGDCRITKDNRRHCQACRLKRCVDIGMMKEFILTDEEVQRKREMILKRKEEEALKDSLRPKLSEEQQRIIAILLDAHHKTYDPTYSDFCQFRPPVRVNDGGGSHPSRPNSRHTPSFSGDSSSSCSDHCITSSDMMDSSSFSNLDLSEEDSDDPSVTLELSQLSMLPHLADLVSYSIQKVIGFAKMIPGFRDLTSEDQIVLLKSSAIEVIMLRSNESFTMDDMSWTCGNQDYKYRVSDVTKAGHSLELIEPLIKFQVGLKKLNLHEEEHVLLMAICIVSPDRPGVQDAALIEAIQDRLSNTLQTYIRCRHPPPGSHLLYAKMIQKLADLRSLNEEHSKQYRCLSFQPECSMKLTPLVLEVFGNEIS
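Signal is fluorescence polarization, reporting how far test compounds block the interaction of VDR with the SRC2-3 coregulator peptide after a 2 h room-temperature incubation.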
* marks the source's active call; other numbers are inactive results; ? = inconclusive; & = joins results of further samples. % is scaled to controls: 0 for no effect and ±100 for the full control effect; potency is read from the fitted curve at half-maximal effect. This is a subset; count on the stated rates, not on these rows.

VDR inhibitor	molecule
-4.4%	CN(O)/C=C/C(=O)c1ccc(Br)cc1
3.1%	O=C(CNC(=O)c1ccncc1)Nc1ccc(F)c(F)c1
7.8%	Cc1cccc(C)c1NC(=O)CNC(=O)c1c(C)nn(C)c1Cl
-18.5%	CCOC(=O)NC1(Nc2cccc(Cl)c2)Oc2ccccc2O1
-14.3%	CC(C)CC(=O)N1CCN(Cc2ccc3ccccc3c2)CC1
11.2%	OC(c1nc2ccc(F)cc2[nH]1)C(O)c1nc2ccc(F)cc2[nH]1 (stereo not given)
-2.2%	COc1cc(OC)cc(C(=O)NNC(=S)NCc2ccco2)c1
-11.1%	CCCCN1CC(COCc2ccccc2)Oc2cccc(NCc3ccc(OC)cc3)c2S1(=O)=O (stereo not given)
-8.4%	O=S1(=O)N=C(N2CCN(Cc3ccccc3)CC2)c2ccccc21
15.2%	CSCCC1NC(=S)N(Cc2ccccc2)C1=O (stereo not given)
-21.1%	CCC/C(=C1/c2ccccc2C(=O)N1c1ccccc1)c1ccc2c(c1)OCCO2
0.2%&-13.8%	OC[C@H]1NC[C@@H](O)[C@@H]1O
-3.2%	Cc1ccc(C)c(C(=O)NC(C)CCc2ccccc2)c1 (stereo not given)
-3.8%	COc1cccc(CNC(=O)c2nnn(CC(=O)Nc3ccc(Br)cc3)c2N)c1
?	CCOC(=O)CSC1=C(C#N)C(=O)NC(c2ccc(OC)cc2)S1 (stereo not given)
-1.6%	CN1CCN(c2ccc(S(=O)(=O)N3CCCCC3)cc2NC(=O)COc2cccc(Cl)c2)CC1
5.5%	COc1cc(NC(=O)Cn2cnc(S(=O)(=O)N3CCC(C)CC3)c2)cc(OC)c1OC
-1.6%	CN(C)S(=O)(=O)c1cccc(NC(=O)COc2cccc(C#N)c2)c1
3.0%	O=C1Nc2ccccc2N(O)N1c1cc(-c2ccc(Cl)cc2)[nH]n1
-0.8%	CCOc1ccc2nc(N3CCC(C(=O)Nc4cc(C)ccc4C)CC3)sc2c1
-4.2%	CC1CCCC(C)N1C(=O)COC(=O)CSc1ccc(C(N)=O)cc1[N+](=O)[O-] (stereo not given)
-14.3%	COc1cc(O)ccc1C=O
21.0%	COc1cc2cc(CN(CCCO)S(=O)(=O)c3ccccc3)c(=O)[nH]c2cc1OC
-21.4%	COc1ccc(C(=O)CC2(C(=O)O)CCCCC2)cc1
-6.6%	COCCn1c(=O)c(-c2cccs2)nc2cnc(OC)nc21
-7.3%	NC1=NN=C(N2N=C(c3ccc(Br)cc3)CC2(O)C(F)(F)F)n2ncnc2C1 (stereo not given)
-12.1%	Cc1nnc2sc(SCC(=O)N3CCCCC3)nn2c1=O
-7.5%	COCCn1c(SCc2cccc(F)c2)nc2cc(C(=O)OC)ccc2c1=O
-11.1%	COc1ccccc1/C=C/C(=O)NCC(=O)N/N=C/c1ccccc1[N+](=O)[O-]
-12.4%	O=C(Nc1ccncc1)C1COc2ccccc2O1 (stereo not given)
-17.2%	COc1ccc(NS(=O)(=O)c2ccc(NC(=O)Cc3cccs3)cc2)cc1
3.1%	O=C(CN(c1ccccc1)S(=O)(=O)c1ccc(Cl)cc1)Nc1ccccc1C(=O)N1CCCC1
-0.2%	CC(C)c1nc(SCC(=O)N2CCCC2)c2ccccc2n1
0.1%	CCn1c(=O)cc(OCC(=O)NCCc2ccc(OC)c(OC)c2)c2ccccc21
-10.5%	COc1ccc(OC)c(NC(=O)c2ccc(N3C(=O)C4CC=C(C)CC4C3=O)cc2)c1 (stereo not given)
-31.2%	CCOc1ccc(-n2ccnc(SCC(=O)Nc3ccc(CC)cc3)c2=O)cc1
22.2%	Cc1ccc(C)c(NC2=C(c3ccc(C(F)(F)F)cc3)C(=O)c3ccccc32)c1
8.2%	Cc1ccc(CCC(=O)Nc2ccc(S(N)(=O)=O)cc2)o1
-6.9%	CC(C)NC(=O)CSc1nc(Cc2cccs2)nc2ccccc12
-19.8%	Cc1cccc(OCc2nnc(SCc3cc(=O)[nH]c4ccccc34)n2-c2ccccc2)c1
3.2%	COc1ccc(-c2cc(C(F)(F)F)nc(N3CCN(Cc4ccccc4)CC3)n2)cc1OC
3.6%	Cc1nn(C(=O)N(C)C)c(C)c1CN1C(=O)c2ccccc2C1=O
-21.4%&5.9%	COc1cc(C(CC(=O)Nc2ncccc2C)N2Cc3ccccc3C2=O)cc(OC)c1OC (stereo not given)
-2.0%	Cc1ccc([N+](=O)[O-])cc1NC(=O)c1ccc(CSc2ccccc2)cc1
-12.9%	CCn1c2ccccc2c2cc(NC(=O)CSc3nnc(C4CC4)n3Cc3ccco3)ccc21
-2.5%	COc1ccc(-c2nnc3ccc(SCC(=O)N4CCOCC4)nn23)cc1
-19.6%	Nc1cc(S(=O)(=O)Nc2ccccc2Cl)ccc1N1CCOCC1
17.3%	COc1ccc(C(=O)c2c(N)c(C(=O)Nc3cccc(OC)c3)c3ccccn23)cc1
-4.7%	CCCCNC(=S)N=Nc1c(O)n(Cc2ccccc2)c2ccccc12
2.9%	CCOc1cc(OCC)cc(C(=O)Nc2cccc(-c3nc4ccccc4[nH]3)c2)c1

(list continues)
VDR inhibitor	molecule
-6.5%	O=P(c1ccccc1)(c1ccccc1)C(O)c1ccncc1 (stereo not given)
-5.8%	NS(=O)(=O)c1ccc(CCNC(=O)c2cc(-c3cccs3)nc3ccccc23)cc1
-9.6%	O=c1c2ccccc2nc(-c2ccco2)n1-c1nc2ccccc2s1
5.1%	CCC1CN(C(=O)Nc2cccc3c2CCCC3)c2ccccc2O1 (stereo not given)
-14.2%	COCc1c(C(C)C)nc(C(C)C)c(/C=C/[C@@H](O)C[C@@H](O)CC(=O)O)c1-c1ccc(F)cc1
18.9%	CS(=O)(=O)NN1C(=O)c2ccccc2NC1c1ccccc1F (stereo not given)
?	COc1ccc(NC(=O)COC(=O)CCCOc2ccc(Cl)cc2Cl)cc1
7.6%	COc1ccccc1CC(=O)Nc1ccc(Cl)cc1C(=O)O
-8.7%	Cc1ccc(NC(=O)Nc2ccon2)cc1
-5.2%	O=C(O)c1cccc(Nc2ccc([N+](=O)[O-])cn2)c1
9.3%	CCc1noc(C)c1C(=O)N1CCN(S(=O)(=O)c2ccc(C)cc2C)CC1
0.5%	CC1=C(C(=O)Nc2ccccc2)C(CC(C)C)n2nc(SCc3ccccc3C)nc2N1 (stereo not given)
17.0%	CCC(=O)Nc1cc(C)c(NC(=O)c2ccccc2OC)cn1
5.9%	Cc1ccccc1C(=O)N1CCC(C(=O)Nc2ccc(S(=O)(=O)N(C)C(C)C)cc2)CC1
2.7%	CC(=O)Nc1cccc(NC(=O)CSc2nc(=O)n(Cc3ccncc3)c3c2CCC3)c1
-2.1%	CCCCc1nn2c(=O)cc(COC(=O)c3cccc(NC(=O)c4cccc(Cl)c4)c3)nc2s1
-11.2%	CC(=O)Nc1ccc(NC(=O)C(C)Sc2nnc(-c3ccc4c(c3)OCO4)o2)cc1 (stereo not given)
-8.5%	Cc1cccc(NC(=O)c2c(C)nc3ccccn23)c1
-11.3%	COc1ccc(NC(=O)CNC(=O)C2CCCCC2)cc1OC
15.8%	CC(C)(C)c1ccc(C(=O)NCC(c2cccnc2)N2CCc3ccccc3C2)cc1 (stereo not given)
-3.5%	COC(=O)c1cc(S(=O)(=O)NCc2ccc3c(c2)OCO3)cn1C
-5.7%	COc1ccc(/C=C2\SC(=S)N(CCCC(=O)N3CCN(C)CC3)C2=O)cc1OC
-11.7%	COc1ccc(C)cc1NC(=O)CSc1ncc2c(n1)-c1ccc(Cl)cc1N(Cc1ccccc1)S2(=O)=O
-4.6%	Cn1ncc2c(Sc3ccc(Cl)cc3)ncnc21
5.4%	CCc1noc(C)c1C(=O)N1CCCSC1=Nc1ccccc1C(C)C
-4.4%&-7.2%	COc1cc(-c2nnn(CC(=O)NCc3ccccc3)n2)cc(OC)c1OC
-10.4%&6.4%	CC(C)CN(CCNC(=O)c1cn(C)c2ccc(S(=O)(=O)N3CCCC3)cc2c1=O)CC(C)C
-22.2%	O=C(Nc1cccc(NC(=O)c2ccccc2[N+](=O)[O-])c1)c1ccccc1Cl
-1.7%	CC(C)(C)NC(=O)c1cccc(NC(=O)c2cccc(O)c2)c1
10.8%	Cc1ncsc1CCC(=O)N1CCCC(Nc2ccc(C(C)C)cc2)C1 (stereo not given)
-1.8%	CCOC(=O)Cn1nc(C)c(NC(=O)CCc2ccccc2)c1C
8.6%	CSc1cccc(NS(=O)(=O)c2ccc(F)cc2)c1
-18.4%	Cc1cccc(Nc2nc(N)nc(N)c2S(=O)(=O)c2ccccc2)c1
-14.2%	CC1=NNC(=O)C1Cc1ccccc1 (stereo not given)
14.5%	CC(NC(=O)Nc1ccccc1)c1ccccc1 (stereo not given)
4.2%	Cc1ccc(S(=O)(=O)CC(=O)N2CCCCCC2)cc1
14.2%	COc1ccc(-c2nc(NC3=NCCCCC3)sc2C)cc1
-19.3%	C/C(=N\NC(=O)c1cc(C)[nH]n1)C(C)(C)C
21.0%	CCOc1ccc(C2=CC(c3cccc(Br)c3)n3c(nc4ccccc43)N2)cc1Cl (stereo not given)
2.3%	Cc1cc(Oc2ccccc2)nc(SCC(=O)Nc2ccc(Cl)c(Cl)c2)n1
-4.9%	COc1ccc(C(=O)c2ccc(N3CCN(C(=O)c4ccc(F)cc4)CC3)c(F)c2)cc1Br
-9.9%	CC(=O)N1CCC(=NNC(=O)c2cccs2)CC1
-9.9%	CC1CCN(C(=S)Nc2ccc(SC(F)F)cc2)CC1
-13.3%	Cc1cccc(N2CCN(CCCNc3ncnc4onc(-c5ccc(F)cc5)c34)CC2C)c1 (stereo not given)
-15.7%	C=CCC1NS(=O)(=O)OCC1C(C)C (stereo not given)
-5.7%	O=C(Nc1ccncc1)C1c2ccccc2Oc2ccccc21
-0.3%	CCN1CCN(c2ncc3c(n2)CCN(Cc2cc(F)cc(F)c2)C3)CC1
7.4%	Cc1nc(C)c(-c2ccc(SCC(=O)Nc3cccc(F)c3)nn2)s1
-13.8%	COc1ccc(C2/C=C\CN(Cc3ccco3)C(C)C(=O)N2Cc2ccc(F)cc2)cc1 (stereo not given)
-11.4%	CCOc1cc2c(cc1/C=C1/NC(=O)N(CC(=O)OC)C1=O)OCO2

Filtered by structure: the compounds so far containing a cyano group
VDR inhibitor	molecule
?	CCOC(=O)CSC1=C(C#N)C(=O)NC(c2ccc(OC)cc2)S1 (stereo not given)
-1.6%	CN(C)S(=O)(=O)c1cccc(NC(=O)COc2cccc(C#N)c2)c1

The list goes on.
VDR inhibitor	molecule
4.8%	CCc1nnc(NC(=O)CSc2nnc(-c3c[nH]c4ccccc34)n2C)s1
14.7%	Nc1cc(=O)[nH]c(SCc2cccc3ccccc23)n1
1.5%	CN(Cc1ccccc1N1CCCC1)C(=O)c1cc2cc(Cl)ccc2o1
-19.3%	O=C(c1ccccc1F)N1CCN=C1SCc1cccnc1
4.6%&-10.1%	CCN(CC)CCC(c1ccc(OC)cc1)c1c(O)cc(OC)cc1OC (stereo not given)
-9.7%	CCOC(=O)c1cc(C(=O)NN)c(C)nc1C
-2.2%	O=C(COc1ccccc1)N(Cc1ccco1)c1ccc(O)cc1
-8.8%	COCCN(CCOC)Cc1c(O)ccc2c1O/C(=C\c1ccco1)C2=O
16.8%	COc1ccc(-c2nnc(SCC(=O)NC3CCCC3)nc2-c2ccc(OC)c(OC)c2)cc1OC
7.3%	CC(=O)N[C@@H](Cc1c[nH]c2ccccc12)C(=O)O

Arranged by the number under VDR inhibitor (falling): some entries from above.
VDR inhibitor	molecule
16.8%	COc1ccc(-c2nnc(SCC(=O)NC3CCCC3)nc2-c2ccc(OC)c(OC)c2)cc1OC
14.7%	Nc1cc(=O)[nH]c(SCc2cccc3ccccc23)n1
4.8%	CCc1nnc(NC(=O)CSc2nnc(-c3c[nH]c4ccccc34)n2C)s1
1.5%	CN(Cc1ccccc1N1CCCC1)C(=O)c1cc2cc(Cl)ccc2o1
-2.2%	O=C(COc1ccccc1)N(Cc1ccco1)c1ccc(O)cc1
-8.8%	COCCN(CCOC)Cc1c(O)ccc2c1O/C(=C\c1ccco1)C2=O
-19.3%	O=C(c1ccccc1F)N1CCN=C1SCc1cccnc1

Next results follow.
VDR inhibitor	molecule
-6.0%	CCOC(=O)CSc1ccc(C(=O)Nc2ccc(OC)cc2)cn1
1.4%	N#Cc1cccc(NC(=O)C2CCN(c3ncccn3)CC2)c1
-0.8%	CCOC(=O)c1cnc2c(C)cc(C)cc2c1NCCc1ccc(OC)c(OC)c1
4.5%	CN(C)S(=O)(=O)N(CC(=O)NCCSc1ccccc1)c1ccccc1
17.7%	CC[C@H](C)[C@H](NC(=O)[C@@H](NC(=O)[C@@H](NC(=O)[C@H](CCC(=O)O)NC(=O)[C@H](CCC(=O)O)NC(=O)[C@H](CCC(=O)O)NC(=O)[C@H](C)NC(=O)[C@@H](N)CC(C)C)C(C)C)C(C)C)C(=O)N[C@@H](CCCNC(=N)N)C(=O)N[C@@H](CO)C(=O)N[C@@H](C)C(=O)N[C@@H](CC(N)=O)C(=O)N[C@@H](Cc1ccccc1)C(=O)N[C@H](C(=O)N[C@@H](CC(=O)O)C(=O)N[C@@H](CC(N)=O)C(=O)O)[C@@H](C)O
-6.2%	O=C(N=C1SC2CS(=O)(=O)CC2N1c1cc(Cl)ccc1Cl)C1CC1 (stereo not given)
-10.8%	CCOc1ccc(NC(=O)CSc2nc3ccsc3c(=O)n2CCC(=O)O)cc1
?	Cc1cc(C(F)(F)F)c(C#N)c(N2CCOCC2)n1
-6.0%	CC(C)c1cc(C(=O)O)n(-c2ccccc2)n1
-5.4%	N#CC1(NC(=O)CSc2ccccn2)CCCCC1
6.4%	CCc1nn2c(=O)cc(CSc3nc(C)cc(=O)[nH]3)nc2s1
0.0%	CC(C)C[C@@H](CC(=O)N[C@@H](CCC(=O)O)CC(=O)O)NC(=O)[C@@H]1CNCC[C@H]1NC(=O)C[C@@H](NC(=O)C[C@H](Cc1c[nH]c2ccccc12)NC(=O)[C@@H]1CNCC[C@H]1N)C(C)C
6.7%	Cc1ccc(NC(=O)Nc2ccccc2F)cc1S(=O)(=O)N1CCOCC1
-1.3%	Cc1ccc2c(c1)nnn2C1CCN(S(=O)(=O)c2ccc(C(=O)N3CC(C)CC(C)C3)cc2)CC1 (stereo not given)
